AID504770: growth inhibition of E. coli YBA685, primary screen, V. cholerae RctB inhibitors; z-score (no concentration beside the values); actives 0.27% (n = 130,000); E. coli YBA685 rctB-dependent plasmid, OD600 growth, 3 h; hits give low values; AID 504770, 2011;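 active = z-score under -2 on both plates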;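 note: wells of about 30 µL received 100 nL stock; score is relative to mean and SD of the test wells; the first replicate is given; strong numbers were not always called active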
CapD inh: Bacillus anthracis CapD inhibitors, primary screen, biochemical, fluorescence intensity; CapD gamma-glutamyltranspeptidase (Bacillus anthracis Ames Ancestor); purified CapD enzyme, fluorescence intensity read-out; hits give low values; some hits fall short of the stated cut; z-score (test concentration not listed); actives 0.23% (n = 140,000);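 active = z-score under -4 in either of two replicates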;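 note: stock transfer was 100 nL into about 40 µL; score is relative to mean and spread of the plate; one replicate is shown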
Numbers without * were called inactive; i = inactive; nt = not tested or not shown; & = joins results of further samples.

Results follow in this order: AID504770	CapD inh
N#CC1(C#N)[C@H](c2ccc(Cl)cc2Cl)[C@@H](C(=O)C23CC4CC(CC(C4)C2)C3)N2c3ccccc3C=C[C@@H]21
 : nt	0.505
Cc1cccc(C)c1N1CCN(C(=O)CCc2nc3ccccc3n2C)CC1
 : nt	0.26
CC1=NN(c2ccc(C)c(C)c2)C(=O)/C1=C/c1ccc2c(c1)n(C)c(=O)n2C
 : -0.45	-0.01
Cc1c(/C=C(\C#N)S(=O)(=O)C(C)(C)C)sc2ccccc12
 : 0.4	0.645
COc1ccc(-n2nnnc2SCSc2nnnn2-c2ccc(OC)cc2)cc1
 : -0.2	nt
CC(=O)Nc1ccc(/C=N/NC(=O)c2ccccc2-n2cccc2)cc1
 : 0.2	nt
NC1CCN(c2nc(-c3ccc(F)cc3)cs2)CC1
 : -0.45	-0.11
CCC(=O)N1C(C(=O)O)CSC12CCN(C)CC2 (stereo not given)
 : 0.95	-0.385
CCN(CC(=O)Nc1cccc(OC)c1)C(=O)Cn1c(=O)cnc2ccccc21
 : -0.15	nt
FC(F)(F)c1cnc(Sc2ccccc2-n2cccc2)c(Cl)c1
 : nt	-0.055
CCCNS(=O)(=O)C1CCS(=O)(=O)C1 (stereo not given)
 : 1.4	-1.27
CC(C)CCNC(=O)c1ccc2c(c1)[nH]c(=S)n1c3ccccc3nc21
 : nt	-0.51
CC1CCN(c2nc(N3CCC(C)CC3)nc(N3CCC(C)CC3)n2)CC1
 : -0.3	0.44
O=C(CC(c1ccccc1)c1cc(Br)ccc1O)N1CCCC1 (stereo not given)
 : -0.35	0.285
COC(=O)c1cnc(Sc2ccccn2)nc1C(F)(F)F
 : -0.4	-0.995
Cc1ccccc1OCC(=O)NC(c1ccccc1)c1c(O)ccc2ccccc12 (stereo not given)
 : 0.55	-0.045
COc1ccc2nc(SCc3ccc([N+](=O)[O-])cc3)nc(C)c2c1
 : nt	-0.01
Cc1[nH]n(-c2ccccc2)c(=O)c1C(=O)Nc1ccccc1
 : -0.1	-0.27
O=C(O)c1ccc(N2CCCS2(=O)=O)cc1
 : -0.2	-0.235
Cn1ccc(NC(=O)Nc2ccccc2)n1
 : -0.85	-0.97
Cc1cccc(NC(=O)CCSc2ccccc2)c1C
 : -0.9	-0.865
CSC1=N/C(=C/c2ccco2)C(=O)N1
 : 1.65	-2.93
CN1CCN(CC(O)c2ccccc2)CC1 (stereo not given)
 : 0.15&0.1	-0.315&-0.205
CC1CCCC(NC(=O)CCn2c(=O)oc3ccccc32)C1C (stereo not given)
 : 1.1	-0.455
CCCc1ccc(Oc2ccc(NC(=O)C3CC3C(=O)O)cn2)c(OC)c1 (stereo not given)
 : 1.9	-1.21
O=C(Nc1cc(N2CCOCC2)ncn1)c1ccccc1
 : -1.25	-0.245
O=S(=O)(Nc1ncnc2sccc12)c1cccc(F)c1
 : -0.05	nt
Cc1cccc2c(C(F)(F)F)cc(Sc3ccc(Cl)cc3)nc12
 : nt	-0.425
COCCCNC(=O)/C=C/c1ccc(OCc2c(F)cccc2Cl)cc1
 : nt	-0.605
O=C(CCN1c2ccccc2Sc2ccccc21)OC1CCOC1=O (stereo not given)
 : -0.2	nt
CCO/C=C1/C(=O)N(c2ccc(Cl)cn2)C(=O)c2ccccc21
 : -0.15	nt
N#Cc1ccc2c(c1)nc1c3ccc(C(=O)O)c4c(C(=O)O)ccc(c(=O)n21)c43
 : nt	-1.09
CCn1c(SCC(=O)c2cc(C)n(-c3ncn[nH]3)c2C)nc2cc(S(N)(=O)=O)ccc21
 : 0.1	nt
COC(=O)C(C)Sc1nc2c(cnn2-c2ccccc2)c(=O)[nH]1 (stereo not given)
 : 2.65	-0.16
CCN(CC)C(=S)Oc1ccc(Cl)cc1Cl
 : -0.2	0.48
Nc1cc(N)nc(SCc2ccccc2)n1
 : -1.45	0.26
N#CCSc1nsc2sc(C#N)c(N)c12
 : -0.25	-0.47
COc1ccc(C(=O)Cc2ccccc2)cc1
 : -0.75	0.005
O=S1(=O)CCC(N2CCN(c3nc(C(F)(F)F)nc4ccccc34)CC2)C1 (stereo not given)
 : 0.05	nt
COc1ccc(-c2nc3c4ccccc4ccn3c2C(C)=O)cc1
 : nt	1.22
CCOC(=O)c1cccc(NC(=O)n2ncc3c(C)cccc32)c1
 : 0.15	0.2
CC1(C)CSC(Nc2ccc(F)cc2)=N1
 : -1.1	-0.625
CN1c2ccsc2/C(=N/NC(=O)c2ccc(Cl)cc2)CS1(=O)=O
 : nt	13
CC1CCN(C(=O)c2cccc(Cl)c2)CC1
 : 0.1	nt
Cn1c(=O)c2c(nc(NCc3ccco3)n2Cc2ccccc2Br)n(C)c1=O
 : nt	0.95
O=C(O)COc1ccccc1/C=c1\sc2nc3ccccc3n2c1=O
 : -0.05	-0.75
CC1CCCCN1CC(O)COCc1ccccc1 (stereo not given)
 : -0.15	-0.675
COc1ccc(-c2nnc(NC(=O)c3ccc(S(=O)(=O)N4CCC(C)CC4)cc3)o2)c(OC)c1
 : nt	0.21
C=CCn1c(CO)nc2ccccc21
 : -0.8	0.14
Cn1cc(C(=O)N2CCOCC2)c2ccccc21
 : -0.3	-0.115
CC(C)(C)C(=O)Nc1ccccc1C(=O)Nc1cccnc1
 : 1.4	nt
Cc1ccc(/C=C2\SC(=S)N(CCC(=O)OCCN(C)C)C2=O)cc1
 : nt	-2.31
CCOC(=O)N1CCC(NC(=O)c2cc(C)cc(C)c2)CC1
 : -1.4	-0.555
Cc1ccc(C(=O)Nc2ncnc3oc(-c4ccccc4)c(-c4ccccc4)c23)cc1
 : nt	46.5
Cc1cc2c(cc1C)CSC(c1cccs1)SC2
 : nt	0.225
O=C(O)c1c(-c2ccccc2)c(-c2ccccc2)n[nH]c1=O
 : 0.6	0.11
COc1ccc(C(=O)CSc2ccc3nnc(-c4ccccn4)n3n2)cc1
 : 1.85	nt
S=c1nc(SCCOc2ccccc2)[nH]c2ccccc12
 : 1.15	-0.12
C/C(=N\OC(=O)c1ccc(C)cc1)c1sc(-c2ccc(Cl)cc2)nc1C
 : nt	-0.16
CC(N/C=C1/CCCCC1=O)C1CC2CCC1C2 (stereo not given)
 : -0.35	-1.58

Record cards, from the list above.
C/C(=N\OC(=O)c1ccc(C)cc1)c1sc(-c2ccc(Cl)cc2)nc1C is entered as AID504770: nt; CapD inh: -0.16
Cc1cccc2c(C(F)(F)F)cc(Sc3ccc(Cl)cc3)nc12 is entered as AID504770: nt; CapD inh: -0.425

New compounds follow
SMILES	AID504770	CapD inh
CC1SC(=S)NN1c1ccccc1 (stereo not given)	-0.7	-1.57
COC(=O)c1ccc(/C=N/NC(=S)NCc2ccco2)cc1	0.7	nt
NS(=O)(=O)c1ccc(CCNS(=O)(=O)c2ccc3[nH]cc(C(=O)O)c(=O)c3c2)cc1	-0.55	2.89
Cc1cc(S(=O)(=O)/N=C(\N)c2cccnc2)cc(C)c1F	2.3	-0.265
CCOC(=O)c1cnc2cccc[n+]2c1Cl	0.6	44.2
O=C1CN(S(=O)(=O)c2ccc(-c3ccc(=O)[nH]n3)s2)c2ccccc2N1	-0.95	0.92
COc1ccccc1CNC(=O)c1ccccc1SC	2.3	-0.075
Cc1nn(C(C)C(=O)NC2CCCCCC2)c(=O)c2cc3occc3n12 (stereo not given)	-0.9	0.19
Oc1ccccc1-c1nnc2n1CCC2	-1.05	3.6
O=C1CCCc2c1cnn2-c1ccccc1	-0.55	-0.095
O=C(CCCSc1nnc(-c2cccs2)n1Cc1ccccc1)N1CCOCC1	0.35	nt
O=C(Nc1ccc(F)cc1F)C12CC3CC(CC(C3)C1)C2	-0.85	0.29
CC(=NCC(C)C)c1c(C)[nH]n(-c2ccc(Br)cc2Br)c1=O	nt	0.01
CCn1c(N)c(C(=O)N2CCCCC2)sc1=S	-0.9	5.32
CCOC(=O)c1ccc2c(c1)[nH]c(=O)c(=O)n2CC	1.1	nt
O=C1C=C(NC2CCCC2)CC(c2ccccc2)C1 (stereo not given)	-1.15	0.955
NC(=O)CSc1nc2cc3c(cc2c(=O)n1CCCC(=O)NCc1ccc2c(c1)OCO2)OCO3	1.5	-1.11
CCOC(=O)c1sc2ncnc(N3CCCCC3C)c2c1C (stereo not given)	nt	0.72
COc1ccc(NC(=O)CN2C(=O)C(c3ccccc3)=NC23CCCC3)cc1	-1.5	-1.44
CCn1c(C(=O)O)c(CC(=O)N2CCC(C(N)=O)(N3CCCCC3)CC2)c2ccccc21	nt	-0.435

Arranged by number of heavy atoms (smallest number first): some entries from above
SMILES	AID504770	CapD inh
CC1SC(=S)NN1c1ccccc1 (stereo not given)	-0.7	-1.57
CCn1c(N)c(C(=O)N2CCCCC2)sc1=S	-0.9	5.32
COC(=O)c1ccc(/C=N/NC(=S)NCc2ccco2)cc1	0.7	nt

Next results follow.
SMILES	AID504770	CapD inh
CC1=CC(=O)C(CCOCCC2=CC(=O)C(C)=CC2=O)=CC1=O	0.75	-0.05
CC(NC(=O)c1ccncc1)c1ccncc1 (stereo not given)	-0.15	-0.5
COc1ccc(S(=O)(=O)N(CC(=O)Nc2c(C)n(C)n(-c3ccccc3)c2=O)c2ccc(C)cc2)cc1OC	nt	-0.335
O=S(=O)(Cc1cc(N2CCOCC2)nc(-c2ccncc2)n1)c1ccccc1	nt	-0.06
Cc1cc(C(C)(C)C)cc(S(=O)(=O)Nc2ccc(C(=O)N3CCC(C)CC3)cc2)c1C	-0.15	0.715
O=C1CNC(c2ccccc2Cl)c2cc(Br)ccc2N1 (stereo not given)	nt	-0.23
N#Cc1c(NC(=O)c2ccc3c(c2)OCO3)sc2c1CCC2	2.5	nt
Oc1cccc(/C=N/N=C/c2cccc(O)c2O)c1O	0.9	nt
CSc1nc2[nH]ncc2c(=O)[nH]1	0.6	nt
O=C(CCCc1ccccc1)Nc1scc2c(=O)oc3ccccc3c12	1.3	1.74
COC(=O)CN1C(=O)CN=C(c2ccccc2)c2cc(Br)ccc21	nt	-0.195
CC1CCN(CC(=O)Nc2ccc3c(c2)OCO3)CC1	-0.05	nt
Cc1ccc(SC(=O)c2ccco2)cc1	0.5	-0.58
O=C(NCCC1=CCCCC1)C(c1ccccc1)c1ccccc1	0.5	0.105
COc1ccccc1NC(=O)C1=C(C)NC(SCC(=O)Nc2cccc(Br)c2)=C(C#N)C1c1ccccc1 (stereo not given)	nt	-0.145
c1ccc(CNc2nc3ccccc3[nH]2)cc1	-1.65	nt
Cc1[nH]n(-c2ccccc2)c(=O)c1C1=NCCCCC1	-0.25	nt
COc1cc(C2C(C(=O)Nc3ccccn3)=C(C)NC3=C2C(=O)CCC3)ccc1OCc1ccccc1 (stereo not given)	nt	34.8
CC1(C)SC(=S)N(CCN2CCOCC2)C1N(O)C(=O)Nc1ccc(Cl)cc1 (stereo not given)	nt	0.32
CN1CCCN(C(=O)c2ccc(F)c(S(=O)(=O)N3CCOCC3)c2)c2nc3ccccc3nc21	-0.15	nt
CCC(C)N(C(=O)c1cc(Cl)ccc1OC)C(C)CC (stereo not given)	-0.5	-0.075
O=C(COc1ccccc1)N1CCN=C1c1ccccc1	-0.65	-0.065
CC(C)n1c(SCCC(=O)O)nc2ccccc21	-0.15	0.22
COc1ccccc1N(CCC#N)C(=O)c1cncc(Br)c1	-0.25	-0.01
CCN(CC)C(C)C#Cc1ccccc1 (stereo not given)	-0.2	nt
O=c1c(O)c(-c2ccc(O)cc2O)oc2cc(O)cc(O)c12	1.75	-1.25
CC(=O)Nc1ccc(S(=O)(=O)c2ccc(N)cc2)cc1N	-0.35	i
C=CCN1C(=O)/C(=C\c2ccc(C(=O)O)cc2)S/C1=N\c1nnc(CC)s1	-0.4	-2.14
C=CCn1c(/C=C/c2ccccc2)nnc1SCc1ccc(F)cc1	nt	32.1
Cn1ncc(C(=O)CC#N)c1C(F)(F)F	-0.7	-0.165
COC(=O)C(C)OC(=O)c1ccc(Oc2nc(N(C)C)nc(N(C)C)n2)cc1 (stereo not given)	nt	-0.365
CN1/C(=C\C=N\NC(=O)C2COc3ccccc3O2)C(C)(C)c2ccccc21 (stereo not given)	0.55	nt
N#Cc1c2c(c(Nc3ccc(O)cc3)n3c1nc1ccccc13)CCC2	0.6	nt
O=S(=O)(Nc1ccc(O)c(Sc2nc3ccccc3s2)c1)c1cccs1	-0.85	-0.97
CC(C)c1ccccc1NC(=O)COC(=O)c1cc(Cl)cc(Cl)c1	-1.05	-0.65
CC1CCCCN1C(=O)COC(=O)c1ccc(N2CCCC2=O)cc1 (stereo not given)	-0.45	nt
COCCn1c(SCc2csc(N(C(C)=O)c3ccccc3)n2)nc2ccccc21	0	nt
Cc1ccc(S(=O)(=O)N(CC(O)CN(CC(C)C)CC(C)C)c2cccc(C)c2)cc1 (stereo not given)	nt	-0.66
c1ccc(-c2[nH]ncc2-c2nc3ccccc3o2)cc1	nt	0.95
Cc1ccc(/C=N/NS(=O)(=O)c2ccc(C)cc2)cc1	nt	0.695
Nc1ccc(C(=O)N2CCCCC2)cc1	-0.75	0.11
FC(F)(F)Oc1ccc(C2c3ccsc3CCN2Cc2ccc[nH]2)cc1 (stereo not given)	-0.95	-0.65
CCOC(=O)c1c(-c2ccccc2)csc1NC(C)=O	1.35	0.05
CC(C)N(Cc1nc(-c2ccccc2)no1)C(=O)CCc1ccccc1	0.8	58.5

Random draw from the library; any-hit rate near 0.37%.
